# Vaccinia mCherry: qHTS for Stage-Specific Inhibitors of Vaccinia Orthopoxvirus: mCherry Reporter Primary qHTS; Vaccinia virus mCherry reporter infection, fluorescence; about a quarter of the inactives have no number; Potency, µM (series often up to 36.5 µM), without a hit: at the top dose activity change, negative = inhibition, most hits filed as inhibitors; 310,000 compounds, 0.63% hits; active = well fitted inhibition curve with a large enough effect; inconclusive = small, poorly fitted or top-dose-only effect; inactive = no such curve, though single readings can be large or run the other way; tested in A549 cells; further: nearly all actives have a fitted effect of over 35% in size; inactives centre near -10
# VACV Venus inh: qHTS for Stage-Specific Inhibitors of Vaccinia Orthopoxvirus: Venus Reporter Primary qHTS | Potency, µM (highest dose often 36.5 µM), for inactives: at the highest dose activity change, negative = inhibition, usual class: inhibitors | Vaccinia virus Venus reporter expression, fluorescence | 330,000 compounds, 0.46% hits | AID 720580, 2013; active means well fitted inhibition curve with a large enough effect; inconclusive means small, poorly fitted or top-dose-only effect; inactive means no such curve, though single readings can be large or run the other way; tested in A549 cells; further: nearly all actives have a fitted effect of over 30% in size; inactives centre near -10
# Active calls of the source: *; i = inactive; u = inconclusive; x = no result given; & = joins results of further samples; [ ] = remark or other dose. On the % scale 0 is the no-effect control and ±100 the full control effect; potency means the concentration at half of the fitted maximal effect.
# A first look (7 entries):
SMILES,Vaccinia mCherry,VACV Venus inh
CC1(c2ccccc2)NC(=O)N(CC(=O)N2CCN(S(=O)(=O)c3cccs3)CC2)C1=O (configuration not stated),-3%,-16%
CCCc1cc(=O)[nH]c(SCC(=O)NC(=O)OCC)n1,-15%,-9%
O=C(O)c1ccccc1/C=N/n1c(C2CCCCC2)n[nH]c1=S,-10%,-4%
Cc1cccc(-c2nc(N3CCN(c4ccc(F)cc4)CC3)c3ccccc3n2)c1,-9%,-6%
Cc1cc(C)n(-c2ccc(C(=O)Nc3cccnc3Cl)cc2)n1,-1%,u
Nc1nc(Cl)cc(-c2ccccc2)n1,16%,11%
CCn1c2ccccc2c2cc(NC(=O)c3cc(OC)cc(OC)c3)ccc21,-25%,u

# The whole of this part, from the start:
SMILES,Vaccinia mCherry,VACV Venus inh
CC1(c2ccccc2)NC(=O)N(CC(=O)N2CCN(S(=O)(=O)c3cccs3)CC2)C1=O (configuration not stated),-3%,-16%
CCCc1cc(=O)[nH]c(SCC(=O)NC(=O)OCC)n1,-15%,-9%
O=C(O)c1ccccc1/C=N/n1c(C2CCCCC2)n[nH]c1=S,-10%,-4%
Cc1cccc(-c2nc(N3CCN(c4ccc(F)cc4)CC3)c3ccccc3n2)c1,-9%,-6%
Cc1cc(C)n(-c2ccc(C(=O)Nc3cccnc3Cl)cc2)n1,-1%,u
Nc1nc(Cl)cc(-c2ccccc2)n1,16%,11%
CCn1c2ccccc2c2cc(NC(=O)c3cc(OC)cc(OC)c3)ccc21,-25%,u
CCc1c(C)nc2ncnn2c1NCc1cccs1,-9%,-12%
Cn1c(-c2csc(-c3cccc(C(F)(F)F)c3)n2)n[nH]c1=S,i,-11%
COc1cccc(Nc2nc(NCC3CCCO3)c3ccccc3n2)c1 (configuration not stated),u,u

# An excerpt of these results, with two lines to a compound.
# Order of values – Vaccinia mCherry, VACV Venus inh
Cc1cccc(-c2nc(N3CCN(c4ccc(F)cc4)CC3)c3ccccc3n2)c1
 : -9%, -6%
Cc1cc(C)n(-c2ccc(C(=O)Nc3cccnc3Cl)cc2)n1
 : -1%, u
Nc1nc(Cl)cc(-c2ccccc2)n1
 : 16%, 11%
CCn1c2ccccc2c2cc(NC(=O)c3cc(OC)cc(OC)c3)ccc21
 : -25%, u

# (next part)
SMILES,Vaccinia mCherry,VACV Venus inh
Cc1c(NS(=O)(=O)c2cc(Br)cc3c2N(C(=O)C2CC2)CC3)c(=O)n(-c2ccccc2)n1C,-12%,-7%
CC(=O)Nc1cccc(-c2nc3ccccc3n2C(C)C(=O)NC(C)(C)C)c1 (configuration not stated),0%,-7%
CC1=C(C(=O)N(C)C)CC(CC(=O)NCc2cccs2)C(=O)N1CCCN1CCCC1=O (configuration not stated),-11%,-3%
COc1ccccc1/C=C/C(=O)OCC(=O)NC1CCCCCC1,i,-16%
O=C(Nc1ccc2nsnc2c1)N1CCCCCC1,i,-8%
C/C(=N\NC(=O)c1c(C)nc2ccccn12)c1cccc([N+](=O)[O-])c1,-14%,2%
Cn1c(=O)c2c(nc(Br)n2Cc2nnc(N)s2)n(C)c1=O,6%,3%
CCC(=O)NCc1cc(-c2nn(C)c(=O)c3ccccc23)ccc1OC,-12%&-9%,-11%&-13%
O=C1NC2(CCCC2)N=C1c1ccc(Cl)cc1,-6%,-4%
Cc1ccc(S(=O)(=O)N2CCC(=O)N([C@H](COCc3ccccc3)C(C)C)CC2)cc1,-1%,-6%

# One compound at a time, from the list above. Order of screens: Vaccinia mCherry	VACV Venus inh
# Entry for O=C1NC2(CCCC2)N=C1c1ccc(Cl)cc1 → -6%	-4%
# Entry for O=C(Nc1ccc2nsnc2c1)N1CCCCCC1 → i	-8%

# (cont.)
SMILES,Vaccinia mCherry,VACV Venus inh
CC(NC(=O)c1ccc(S(=O)(=O)Nc2ccccc2Cl)cc1)c1ccncc1 (configuration not stated),-8%,-3%
O=C(OCc1cn([C@@H]2C[C@H](c3ccccc3)N(C(=O)C3CCCCC3)C[C@H]2O)nn1)c1ccccc1,-7%,-10%
CSc1ccc(CNC(C)C(O)c2ccccc2)cc1 (configuration not stated),-8%,-5%
CCOC(=O)c1sc(=S)n(C)c1NC(=O)c1ccccc1Cl,-8%,0%
COc1ccc(SCCN2CC[C@@H](NC(=O)OCc3ccccc3)CCC2=O)cc1,-9%&-24%,-24%&-20%
O=C(NCCc1ccccc1)C(=O)NCC(c1cccnc1)N1CCN(c2ccccc2)CC1 (configuration not stated),-18%,-26%
COC(=O)c1sc(C(=O)OC)c(C(=O)OC)c1C(=O)OC,-14%,-5%
COCCOc1cc(-n2cccc2)c(Cl)cc1Cl,i,0%
O=C1CS/C(=N/N=C/c2ccncc2)N1,-14%,-15%
Nc1nnc(SCC(=O)OCc2ccccc2)s1,i,-2%
O=c1c2ccccc2cnn1CCOc1cccc(Br)c1,-16%,-11%
COc1ccc2c(c1)OC(C)CN(CCNC(=O)c1cccc(N3CCNC3=O)c1)C2 (configuration not stated),-16%,-15%
CCN1C[C@]2(COC)CC[C@H](O)[C@@]34C5C[C@H]6[C@H](O)C5[C@](O)(C[C@H]6OC)[C@@H]([C@H](OC)C23)[C@@H]14 (some centres not stated),-4%,0%
CCN(CC)C(=O)CCn1nc(-c2ccc(C)cc2)c2ccccc2c1=O,-18%,-11%
CCc1ccccc1NC(=O)N1CCOc2ccccc21,-14%,-7%
COC(=O)c1ccc(NC(=O)Cn2nc(SC)n(N)c2=S)cc1,x,-15%
CCOC(=O)C(Cc1ccccc1)C(=O)Nc1ccc(NC(=O)C(Cc2ccccc2)C(=O)OCC)cc1 (configuration not stated),-13%,2%
Cc1sc2ncnc(N(C)Cc3ccco3)c2c1C,x,-18%
CC(C)NC(=O)c1cc(-c2ccc(F)cc2OC(C)C)n[nH]1,i,-16%
CC(=O)Nc1cc(C(=O)NCc2ccc(C)cc2)ccc1S(=O)(=O)c1ccc(Cl)cc1,-7%,-7%
O=C(COc1ccc2ccccc2c1Br)NNC(=O)Nc1ccccc1,-20%,0%
CN(C)c1ncc(C(=O)NCc2ccc(Cl)cc2)cn1,-12%,5%
CC(C(=O)Nc1ccc2c(c1)OCO2)N1CCN(C)CC1 (configuration not stated),2%,-9%
NC(=O)c1ccc(Cc2ncc(C(F)(F)F)cc2Cl)s1,x,3%
CN1CCN(c2ccc3c(c2)OC[C@@H](Cc2ccccc2)NS3(=O)=O)CC1,i,4%
Cc1cc(=O)[nH]c(SCc2csc(-c3ccccc3)n2)n1,i,-6%
CC(C)c1ccccc1OCC(=O)NC1CCCc2ccccc21 (configuration not stated),-7%,-11%
CCN1C[C@]2(OC(=O)c3ccccc3NC(C)=O)CCC(OC)C34C5C[C@H]6C(OC)[C@]5(O)[C@](O)(C[C@@H]6OC)C(C[C@@H]32)[C@H]14 (some centres not stated),-12%,2%
CCS(=O)(=O)N1CCC(C(=O)NC2CCCCC2)CC1,i,-13%
COc1ccccc1-n1c(SCC(=O)NCC2CCCO2)nc2c([nH]c3ccccc32)c1=O (configuration not stated),0%,-1%
O=C(O)c1ccc(N2CCN(Cc3ccc4c(c3)OCO4)CC2)c([N+](=O)[O-])c1,-18%,-16%
O=c1[nH]c(=S)n(C2CC2)c(O)c1C=NCCc1ccccc1,i,-17%
C=CCn1cnc2c(c1=O)c1nc3ccccc3nc1n2/N=C/c1cc(OC)c(OC)c(OC)c1,-13%[1.46 µM],-30%
CCOc1ccc(OCC(=O)OCC(=O)Nc2ccccc2C#N)cc1,-4%,-8%
C=CCN(CC=C)Cc1cc(=O)oc2cc(C)cc(C)c12,9%,-1%
Cc1ccnc(N/C=C(/NC(=O)c2ccccc2)C(=O)NN)n1,-7%,-13%
C=CCc1cccc(CNc2nc3ccccc3n2CC)c1O,u,u
CN(C(=O)COC(=O)c1cncc(Br)c1)C1CCCCC1,-13%,-18%
O=C(COC(=O)Cn1cnc2ccccc2c1=O)Nc1ccccc1Sc1ccc(Cl)cc1,-29%,-12%
Cc1cc(=O)[nH]c(SCc2cn3ccccc3n2)n1,i,u
CCc1ccc(C2=NN(C(=O)OC)C(O)(C(F)(F)F)C2)cc1 (configuration not stated),-16%,-4%
CCS(=O)(=O)c1oc(-c2ccc(F)cc2)nc1S(=O)(=O)c1ccc(Br)cc1,-22%,u
COCCN(C(=O)CSc1nnc(-c2ccccc2F)n1C)c1c(N)n(Cc2ccccc2)c(=O)[nH]c1=O,-9%,1%
Cc1ccc(CN2CC(C(=O)Nc3ccc(S(=O)(=O)Nc4cc(C)nc(C)n4)cc3)CC2=O)cc1 (configuration not stated),x,-8%
Cc1cc(Cl)c(S(=O)(=O)NCCC(=O)O)cc1OCC(N)=O,-3%,-13%
CCNCC(=O)Nc1c(C)cccc1C,i,-8%
Cc1ccc2c(c1)n([O-])c1c([n+]2=O)CCCC1,-8%,-6%
CCSc1nsc(NC(=O)Nc2cccc(F)c2)n1,-17%,u
CS(=O)(=O)N1CCN(C(=O)c2ccc(Cl)s2)CC1,i,-8%
C=Cc1ccc(Cn2c(C)c(C(=O)NCc3ccccc3C(F)(F)F)sc2=O)cc1,i,0%
# Next structures follow:
SMILES,Vaccinia mCherry,VACV Venus inh
CN(C)CCCN(C(=O)c1ccc(S(=O)(=O)N2CCCC2)cc1)c1nc2c(F)cc(F)cc2s1,-19%,-8%
CCc1n[nH]c(=S)n1/N=C/c1ccccc1OCc1ccc(Cl)cc1,0%,-19%
O=C(Nc1cccnc1)c1cc(-c2ccc(Br)cc2)nc2ccccc12,i,5%
CC(=O)c1ccc(NC(=O)c2ccc(-c3nc(CSc4ccccc4)c(C)o3)cc2)cc1,-29%,u
COc1cc(NC(=S)N2CCN(S(=O)(=O)c3ccc(F)cc3)CC2)cc(OC)c1,-13%,-6%
Cc1ccc(Sc2nc3ccc(C)cn3c(=O)c2/C=N/O)cc1,i,-3%
O=C(Nc1ccc(-c2nc3ccc(NC(=O)c4cccs4)cc3[nH]2)cc1)c1cccs1,10%,-21%
COc1ccccc1C(=O)C1CCCN(C(=O)CN2CCCCC2=O)C1 (configuration not stated),-6%,-2%
COc1ccc2c(Cl)c(-c3nnc(SCC(=O)c4ccccc4)n3C)sc2c1,-24%,u
COc1cccc(C(=O)Nc2cccc(C(=O)OCc3cc(=O)n4nc(C(C)C)sc4n3)c2)c1,-6%,-7%
COc1cccc(Cn2cnc(-c3ccccc3OC)c2-c2cccs2)c1,-9%,2%
O=C(c1ccco1)N1CCN(C(=O)c2cc(-c3ccccn3)nc3ccccc23)CC1,-10%,-2%
CCO[C@@H]1OC(C(=O)O)=C[C@H](c2ccc(Br)cc2)[C@H]1CCCO,i,-7%
Fc1ccc(-c2noc3ncnc(NC4CCCCC4)c23)cc1,-21%,-19%
CCC(=O)Nc1ccc(NC(=O)c2c(C)nc3ccccn23)cc1,-20%,-11%
O=C(c1cnn2cccnc12)N1CCOc2ccc(C(O)C(c3ccccc3)c3ccccc3)cc2C1 (configuration not stated),u,u
CC(C)=CC1C=C(C)C(C)C2C(=O)NNC(=O)C12 (configuration not stated),-2%,3%
CCc1ccc(NC(=O)CS(=O)CC(=O)Nc2ccc(N3CCOCC3)cc2)cc1 (configuration not stated),-5%,2%
O=C1Nc2ccc([N+](=O)[O-])cc2OC1CCN1CCN(c2ccccc2)CC1 (configuration not stated),u,-14%
Cc1cc(=O)[nH]c(SCc2nc3ccccc3n2Cc2ccccc2)n1,i,-5%
CCCCCc1ccc(-c2ccc(/C=C/C(N)=O)cc2)nc1,-12%,-4%
COc1ccc(S(=O)(=O)c2nnn(-c3cccc(OC)c3)c2N)cc1,-8%,-16%
CC1(C(=O)Nc2ccc3c(c2)OCCO3)CN(S(C)(=O)=O)CC(=O)N1CC(F)(F)F (configuration not stated),-11%,0%
Cc1sc2ncnc(N3CCC(C(=O)Nc4nc(-c5cccs5)cs4)CC3)c2c1C,-10%,-7%
O=C(CCC1COc2ccccc2O1)Nc1ccc(Cl)cn1 (configuration not stated),x,-18%
COCCn1c(C)cc(C2=NNC(=NC(C)(C)C)SC2)c1C,0%,-15%
COc1ccc2oc(=O)c(C(=O)NCc3ccccc3)cc2c1,i,-3%
O=C(NCC(c1cccs1)S(=O)(=O)c1cccs1)c1ccc(C(F)(F)F)cc1 (configuration not stated),-11%,-14%
O=C1NC(=S)NC(=O)C1=Cc1ccc(OCC(=O)N2CCCC2)cc1,i,-8%
CSCCC(Nc1nc2ccccc2s1)C(=O)O (configuration not stated),-14%,-4%
CC1CCCC(N2CCN(S(=O)(=O)c3ccccc3)CC2)C1 (configuration not stated),4%,-3%
C/C(=C\C(=O)C(F)(F)F)Nc1ccc(C(F)(F)F)cc1,x,-13%
Cc1ccc2cc(C3C(C#N)=C(N)Oc4c3ccc3cccnc43)c(=O)[nH]c2c1 (configuration not stated),-28%,-30%
CCOc1ccc2nc(N3CCN(C(=O)C(C)C)CC3)sc2c1,-9%,-15%
Cc1ccc(Cl)cc1NS(=O)(=O)c1ccccc1,-3%,-8%
COc1cccc2sc(N3CCN(c4nc5ccccc5s4)CC3)nc12,6%,3%
CCn1cc(C(=O)NCc2ccccc2Cl)c(=O)c2cc(S(=O)(=O)N3CCOCC3)ccc21,-3%,-6%
Cc1cccc2c1N(CCCOc1ccccc1)C(=O)C2=O,-25%[1.46 µM],-4%
Cc1cc(C)nc(NS(=O)(=O)c2ccc(-n3cccc3)cc2)n1,-14%,-11%
Cc1ccc(O)c(C(=O)c2cnc3c(c2)CN(CCC(C)C)C(=O)N3)c1,-23%,-15%
